KSHV LANA nucl: inhibitors of KSHV LANA binding to nucleosomes; 0.3% of 51,000 active; AID 720717; z-score (test concentration not listed); FITC-LANA1-23 / chicken nucleosome fluorescence polarization; hits give low values;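 active means both repeat wells score below -2 in polarization z-score versus plate sample wells, excluding overly bright wells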;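 further: 100 nL library stock added to about 30 µL; numbers are from one replicate; some results filed as inactive read as strong as hits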
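Test system: purified chicken nucleosomes with FITC-labelled LANA N-terminal peptide (1-23); Input: 240 nM purified chicken nucleosomes (480 nM peptide binding sites), final; Medium: TEN-BT buffer, pH 7.5; Timing: 10–45 min, room temperature; Technique: fluorescence polarization, 480 nm excitation, 535 nm parallel and perpendicular emission; Replication: duplicates.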
BasE inh: inhibitors of Acinetobacter baumannii siderophore enzyme BasE; inhibition, % (test concentration not listed); purified BasE, fluorescence polarization binding displacement; 0.1% of 84,000 active;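 active means both replicates above 25% with normal brightness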;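 further: 0% = negative plate control signal and 100% = positive plate control signal; stock transfer was 100 nL into about 30 µL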
Numbers without * were called inactive; x = no result given; & = joins results of further samples. A portion of the library (hit frequency here may not be typical).

SMILES | KSHV LANA nucl | BasE inh
CCc1ccc(NCc2nnc(-c3ccccc3)o2)cc1 | -0.0365 | 0.2
CCN(CC(=O)NC1CCS(=O)(=O)C1)C(=O)c1ccccc1-c1ccccc1 (stereo not given) | x | 1.3
O=C(Nc1ccccc1)N1CCN(c2nc(-c3ccccc3)ns2)CC1 | -0.182 | 2.2
CNC(=O)NC(=O)C(C)Sc1nc2ccccc2s1 (stereo not given) | x | -1.8
Cc1nc2ccccc2nc1OCC(=O)N1CCN(c2ccccc2)CC1 | x | 2.3
CC(SCc1ccc(Br)cc1)C(=O)O (stereo not given) | x | 1.2
Cc1cccc(C)c1NC(=O)CSc1nnc(C)n1Cc1ccccc1 | 0.0675 | 1.6
Cc1ccc(CNC(=O)c2ccccc2NC(=O)C(F)(F)F)cc1 | -0.794 | x
Fc1ccc(-c2nc3n(n2)Cc2ccccc2-3)cc1 | 1.01 | -2.1
O=c1oc2ccccc2n1Cc1ccc(Cl)cc1 | x | 1.3
CCN(CC)Cc1c(O)ccc2c1O/C(=C\c1ccccc1Cl)C2=O | -3* | 1.5
CCOC(=O)c1ccc(-c2ccc(/C=C(\C#N)C(=O)NCc3cccs3)o2)cc1 | 0.511 | -0.7
CC(=O)N(c1ccc(C)c(C)c1)c1nc(CSc2nnnn2C2CCCC2)cs1 | x | -1.7
CNC(=O)NC(=O)C(C)Sc1nncn1-c1ccccc1 (stereo not given) | x | -4.5
COCCNC(=O)c1cn(C(C)c2ccccc2)nn1 (stereo not given) | -0.869 | -0.1
Cc1cc(C(=O)CN2CCN(c3cccc(Cl)c3)CC2)c(C)n1-c1ccc(S(N)(=O)=O)cc1 | x | 0.1
COc1ccc(C/C(C)=N/Nc2nc(C)cc(=O)[nH]2)cc1 | x | 3.3
CN1C2CCC1CC(NC(=O)CSc1ccc(F)cc1)C2 (stereo not given) | 0.0215 | x
Cc1nn(CC(=O)C23CC4CC(CC(C4)C2)C3)c(=O)c(C#N)c1C | x | -1.1
N#Cc1cc(-c2nc(-c3ccccc3)cs2)c(N)nc1SCC(=O)c1ccc[nH]1 | x | -0.4
CC(C(=O)Nc1ccc(S(N)(=O)=O)cc1)N(C)CC1COc2ccccc2O1 (stereo not given) | x | -5.1
C=CCNc1nc(C(=O)OCC(=O)N2CCCC2=O)cs1 | x | -0.5
C/C=C/C(=O)Nc1ccc(NC(C)=O)cc1 | -0.731 | 1.3
CCCCN(CC)C(=O)c1ccc2c(=O)n(CC(C)C)c(=S)[nH]c2c1 | x | 2.2
O=C1C2ON(c3ccccc3)C(c3ccncc3)C2C(=O)N1c1cccc(Br)c1 (stereo not given) | 0.108 | -2.0
NCCNCc1cccc2cnccc12 | -0.086 | x
N#Cc1ccc(OCC(=O)NCCOc2ccccc2F)cc1 | x | 0.5
Cc1cc(OCC(=O)N2C(C)CCCC2C)ccc1Cl (stereo not given) | x | 0.3
C(=C\CN1CCCCC1)/CN1CCCCC1 | 1.26 | -3.8
CC(C)CCn1c(COc2ccccc2)nn(CCC#N)c1=S | x | -3.7
O=C(CCCc1c[nH]c2ccccc12)NCCN1CCOCC1 | 0.658 | 0.8
CCCCC(=O)N(c1ccc(C)c(C)c1)C1C=CS(=O)(=O)C1 (stereo not given) | 0.213 | -0.3
O=C(CSc1n[nH]c(-c2ccccc2F)n1)NN1C(=O)NC2(CCCCC2)C1=O | x | 2.4
Cc1cc(C)n2nc(SC/C(N)=N/O)nc2n1 | 0.42 | -1.8
COc1ccc(/C=N/O)cc1Cl | 0.216 | x
CCCn1c(C)cc(/C=C(\C#N)C(=O)Nc2ccccc2)c1C | x | 2.2

Sorted by SMILES length (highest first): 15 of the compounds above.
SMILES | KSHV LANA nucl | BasE inh
O=C(CSc1n[nH]c(-c2ccccc2F)n1)NN1C(=O)NC2(CCCCC2)C1=O | x | 2.4
O=C1C2ON(c3ccccc3)C(c3ccncc3)C2C(=O)N1c1cccc(Br)c1 (stereo not given) | 0.108 | -2.0
CC(C(=O)Nc1ccc(S(N)(=O)=O)cc1)N(C)CC1COc2ccccc2O1 (stereo not given) | x | -5.1
Cc1nn(CC(=O)C23CC4CC(CC(C4)C2)C3)c(=O)c(C#N)c1C | x | -1.1
CCCCC(=O)N(c1ccc(C)c(C)c1)C1C=CS(=O)(=O)C1 (stereo not given) | 0.213 | -0.3
CCCn1c(C)cc(/C=C(\C#N)C(=O)Nc2ccccc2)c1C | x | 2.2
O=C(CCCc1c[nH]c2ccccc12)NCCN1CCOCC1 | 0.658 | 0.8
CN1C2CCC1CC(NC(=O)CSc1ccc(F)cc1)C2 (stereo not given) | 0.0215 | x
N#Cc1ccc(OCC(=O)NCCOc2ccccc2F)cc1 | x | 0.5
Cc1cc(OCC(=O)N2C(C)CCCC2C)ccc1Cl (stereo not given) | x | 0.3
Cc1cc(C)n2nc(SC/C(N)=N/O)nc2n1 | 0.42 | -1.8
C/C=C/C(=O)Nc1ccc(NC(C)=O)cc1 | -0.731 | 1.3
C(=C\CN1CCCCC1)/CN1CCCCC1 | 1.26 | -3.8
COc1ccc(/C=N/O)cc1Cl | 0.216 | x
NCCNCc1cccc2cnccc12 | -0.086 | x

(next part)
SMILES | KSHV LANA nucl | BasE inh
Cc1ccc(SCCN2C(=O)NC3(CCCC3)C2=O)cc1 | x | 2.5
N#C/C(=C\C=N\Nc1ccccc1)c1nn(-c2ccccc2)c(-n2cccc2)c1C#N | -0.033 | -2.0
Cn1c2nc3ccccc3nc2c2c(=O)n(Cc3ccccc3)cnc21 | 0.302 | -2.8
COc1ccc(C(=O)NC(=O)CSc2nc3cc(S(=O)(=O)N4CCCCC4)ccc3o2)cc1 | x | 1.3
CCNc1nc(NCC)nc(NCCO)n1 | -0.0245 | 1.7
C1=C(c2cccs2)OC(c2cccs2)=CC1c1cccs1 | -0.859 | 0.4
O=C(c1ccccc1)N1CCN(C(=O)c2ccco2)CC1 | -0.325 | x
O=C(CCSc1nc(-c2ccco2)cc(C(F)(F)F)n1)N1CCCC1 | 2.31 | -3.4
Cc1ccc2oc3ncc(C(=O)NC(C)(C)C)cc3c(=O)c2c1 | -0.078 | x
CCn1cc(C(=O)O)c(=O)c2cc(F)c(N(C)CCc3ccc(OC)c(OC)c3)cc21 | -0.654 | -1.2
Cc1cc(C)n(CCCNC(=O)CSc2ncnc3scc(-c4ccccc4)c23)n1 | x | -0.3
COC(=O)c1cc(-c2c(C)oc3cc(O)ccc3c2=O)c(C)o1 | x | -0.4
O=C(NCc1ccccc1)c1ncn[nH]1 | 0.383 | -0.4
O=c1cc(CSc2nnnn2-c2ccccc2)[nH]c(=S)[nH]1 | 0.545 | -1.2
O=c1cc(CO)oc2c1OCN(C1CCS(=O)(=O)C1)C2 (stereo not given) | 0.367 | -1.7
CCOc1ccccc1N1CC(C(=O)NC2CCCCCC2)CC1=O (stereo not given) | x | -1.8
CN(C)C12CC3CC(CC(C(=O)O)(C3)C1)C2 | -0.046 | 0.8
COc1cc(Cl)c(C)cc1NC(=O)CSC | -1.67 | 2.1
N#C/C=C1\SCC(=O)N1CC(=O)c1ccc(Br)cc1 | x | -28.4
NC1=NC(=O)C(CC(=O)Nc2cccc(C(=O)Nc3ccc4c(c3)OCCO4)c2)S1 (stereo not given) | x | -1.4
Cc1c(C#N)c2nc3ccccc3n2c(=O)/c1=C/NN1C(=O)CNC1=S | x | -3.4
Cc1cc(=O)[nH]c(SC(C)C(=O)Nc2ccccc2)n1 (stereo not given) | -0.265 | 0.6
N#Cc1nc(-c2ccccc2)oc1NCCCn1ccnc1 | -0.57 | -0.3
O/N=C1\CCc2ccccc2\C1=N/O | x | 2.9
CC(C)(C)c1n[nH]c(C(C)(C)C)c1Cc1c(F)cccc1Cl | x | -1.2
O=C(CCc1c[nH]c2ccccc12)N(Cc1cccnc1)c1ccc2c(c1)OCO2 | x | 0.5
CC1(C)N=C2C(=N)C=CC=C2N1O | -1.19 | 2.1
Cc1cc(C)n2cc(CSC3=NCCS3)nc2n1 | x | -0.3
CCC(=O)N1CCN(C(=O)CC)C1c1ccccc1 | -0.057 | 0.3
Clc1ccccc1C1N(Cc2ccccc2)CCN1Cc1ccccc1 | x | 2.2
Cc1ccc2c(c1)-c1c(ssc1=S)C(C)(C)N2C(=O)c1ccncc1 | x | 6.4
CCCCCCCCCCCCC/C=C/[C@@H](O)[C@H](CO)NC(=O)CCCCCCCCCCCCCCC | 0.454 | -0.2
O=C(OCCOc1ccccc1)c1ccccc1C(=O)N1CCN(c2ccc(F)cc2)CC1 | x | -1.1
CCCCCn1c(=O)[nH]c2cc(C(=O)N3CCN(c4cc(C)ccc4C)CC3)ccc2c1=O | -0.238 | 0.1
COc1ccc(CNC(=O)COC(=O)Cc2n[nH]c(=O)c3ccccc23)cc1 | x | -0.9
C=C(C)COc1cc(O)c2c(=O)cc(-c3ccccc3)oc2c1 | -0.027 | 2.0
Cc1sc2nc(CSCC(=O)OC(C)(C)C)[nH]c(=O)c2c1C | x | -0.4
CC1CCN(C(c2ccncc2)c2ccc3cccnc3c2O)CC1 (stereo not given) | x | 0.9
CCOC(=O)c1nc(-c2ccc(F)cc2)no1 | 0.964 | 1.1
Cc1n[nH]c(C)c1NC(=O)CSc1nnc(-c2ccoc2C)n1-c1ccccc1 | x | 0.2
Cc1cccc(C(=O)NC2CCN(CC(=O)N3CCOCC3)CC2)c1 | -0.675 | 4.2
O=C1C(c2nc3ccccc3[nH]2)=C(O)c2ccccc21 | -1.03 | -0.8
C=C(C)c1nc2cc(OC)c(OC)cc2c(=O)o1 | -0.385 | 1.1
Cc1cc(C)cc(NC2=NS(=O)(=O)c3ccccc32)c1 | -0.52 | 0.4
Cc1ccc(-c2cc(C(F)F)nc(NC3CCCCC3)n2)cc1 | -0.863 | 1.6
COC(=O)C1=C(C)NC(C)=C(C(=O)OCCN(C)Cc2ccccc2)C1c1cccc([N+](=O)[O-])c1 (stereo not given) | 0.0375&0.208&0.288&0.145 | 1.6&-2.6&-2.0
N#C/C(=C\c1cn(-c2ccccc2)nc1-c1ccccc1Cl)C(N)=O | x | -0.2
Cc1cccc(-c2nc3s/c(=C\C4=Cc5ccccc5OC4)c(=O)n3n2)c1 | x | 1.1

3 compounds from above, sorted by the number in KSHV LANA nucl, rising.
| smiles | KSHV LANA nucl |
| --- | --- |
| CC1(C)N=C2C(=N)C=CC=C2N1O | -1.19 |
| Cc1cc(=O)[nH]c(SC(C)C(=O)Nc2ccccc2)n1 (stereo not given) | -0.265 |
| O=C(CCCc1c[nH]c2ccccc12)NCCN1CCOCC1 | 0.658 |

Additional structures follow.
SMILES | KSHV LANA nucl | BasE inh
COC(=O)CN1C(=O)c2ccccc2NC1c1ccc(OC)cc1 (stereo not given) | -0.622 | 1.5
COCCNC(=O)c1ccc2snnc2c1 | 0.06 | -2.4
Cc1ccc(NC(=O)NC(=O)Cn2nnc(-c3ccc(Cl)cc3)n2)c(C)c1 | x | 4.8
CC(=O)N(c1nnc(-c2ccc(C)cc2)s1)C1CCCC1 | 0.0945 | -1.3
CCOc1cccc(=[O+]CC)c2c(C)oc(C)c12 | x | 12.4
O=C(O)CCc1ccc(-c2ccccc2)n1NC(=O)c1ccccc1Br | x | 1.0
Cc1n[nH]c(C)c1N1C(=O)c2cccc3c(Br)ccc(c23)C1=O | 0.487 | 3.1
CCCC1CCCCNC1=O (stereo not given) | -0.817 | 1.4
C/C=N/NC(=O)COc1ccc(Cl)cc1 | -0.561 | 0.9
CCCCn1c(=O)[nH]c2ccccc21 | 0.971 | 0.9
Cc1cc2c(cc(C(=O)OC(C(=O)NCC3CCCO3)C(C)C)n2C)o1 (stereo not given) | 0.404 | -0.8
Cc1ccc2cnn(CC(=O)NCc3cccnc3)c2c1 | 0.14 | 7.5
CC(C1CC2CCC1C2)n1c(-c2cccs2)n[nH]c1=S (stereo not given) | x | -2.4
NC(=O)CN1c2ccccc2-c2ccccc2S1(=O)=O | -0.593 | x
Nc1cccc2c1C(=O)N(Cc1ccccc1)C2=O | -2.18 | 9.3
Cc1cc2nc(C)n(CCCNC(=O)Nc3ccc(F)cc3)c2cc1C | 1.01 | -5.6
COc1cccc(NC(=O)Nc2ncccc2C)c1 | -1.8 | 1.6
Cc1csc(C(C#N)C(=O)CSc2nnc(NC3CC3)s2)n1 (stereo not given) | x | 0.6
Cc1ccc(C(=O)CSc2n[nH]c(C(F)(F)F)n2)cc1 | x | 0.8
Cc1ccc(N(CC(N)=O)S(=O)(=O)c2ccccc2)cc1 | -0.046 | -1.7
CCCC(=O)N/N=C/c1ccc(Br)cc1 | x | 1.0
COc1ccccc1C(=O)Oc1ccc(C#N)cc1 | x | 1.9
CC(=O)Nc1ccc(S(=O)(=O)NC2(C(F)(F)F)NC(=O)N(C3CCCCC3)C2=O)cc1 (stereo not given) | -0.532 | -0.8
CC1(C)CC2CC(C)(CN2c2nc3ccccc3[nH]c2=O)C1 (stereo not given) | x | -0.3
CN(C)c1ccc(C2C3=C(CC(C)(C)CC3=O)Oc3nc(N)c(C#N)c(N)c32)cc1 (stereo not given) | -0.378 | -0.2
O=C(NC1CSC/C1=N\O)c1ccccc1 (stereo not given) | -0.837 | 1.1
CCOc1ccc(N=c2scc(-c3ccc(Cl)s3)n2C)cc1 | x | 5.3
COCC(C)NC(=O)C1CCN(S(=O)(=O)c2ccc(F)cc2)CC1 (stereo not given) | -0.16 | -1.7
N#CC(C(N)=S)=C1CCCCC1 | -0.631 | 0.3
Cc1csc(N(C(=O)/C=C/c2ccco2)c2ccccc2)n1 | x | 0.5
Cc1cc(C)c(-n2c(SCC(=O)Nc3ccccc3Cl)n[nH]c2=O)c(C)c1 | x | 1.4
CC(C)(C)C1CCC(OC(=O)c2ccc3c(c2)OCO3)CC1 (stereo not given) | x | 0.1
CC1Cc2ccccc2N1Cc1cccc(S(=O)(=O)N(C)C)c1 (stereo not given) | x | -0.8
Cc1sc2nc(SCC(N)=O)n(-c3ccccc3)c(=O)c2c1C | x | 0.9

Screens as filed in PubChem.
